Bioassay records (PubChem BioAssay)
AmpC nodet inh: AmpC beta-lactamase inhibition, detergent-free assay | 1.8% of 71,000 active | Potency, µM (highest dose often 28.7 µM), for inactives: at the top dose activity change, negative = inhibition | AmpC nitrocefin hydrolysis, absorbance 480 nm, no detergent; potencies from a single point are estimates; active = falling curve, for most hits resting on a single point; inconclusive = weak or doubtful change; inactive = flat or rising curve; note: % of control where 0% means no effect; about half of the hits show no inhibition at the top dose; a quarter of the inactives give rising signals
Target sequence (P00811 whole entry, looked up): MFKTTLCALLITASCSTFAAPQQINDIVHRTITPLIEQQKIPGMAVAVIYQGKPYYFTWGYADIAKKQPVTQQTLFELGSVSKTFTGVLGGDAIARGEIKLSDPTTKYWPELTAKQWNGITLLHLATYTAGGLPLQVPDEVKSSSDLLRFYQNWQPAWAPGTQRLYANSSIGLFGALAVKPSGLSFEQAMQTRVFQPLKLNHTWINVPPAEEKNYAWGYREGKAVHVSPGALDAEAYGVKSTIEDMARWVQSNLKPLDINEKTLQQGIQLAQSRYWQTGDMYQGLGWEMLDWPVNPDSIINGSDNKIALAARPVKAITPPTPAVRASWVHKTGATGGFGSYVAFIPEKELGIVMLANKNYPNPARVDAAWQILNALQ
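AmpC, 20 mM phosphate pH 7.0; 15 min cpd preinc, RT; start with nitrocefin (800 uM stock); A480 kinetic read, 20 s intervals, 4 min. No-enzyme wells = negative control.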
An asterisk follows results filed as active; & = joins results of further samples; [ ] = another dose, or the depositor's remark. Potency is the fitted concentration of half-maximal effect. Not all compounds are listed; the hit share may differ from the screen's.

SMILES | AmpC nodet inh
CC(O)(C#CCN1CCCC1)c1ccccc1 (centres undefined) | -0.3%
COC(=O)NC1CSCC1OC(=O)c1ccc(Br)cc1 (centres undefined) | -3.0%
CC(=O)c1c(C)[nH]c(C(=O)Nc2c(C)n(C)n(-c3ccccc3)c2=O)c1C | -3.9%
CCOC(=O)C1C2C=CC3(CN(Cc4ccco4)C(=O)C13)O2 (centres undefined) | 24.7%
CN1CCCN(C)C1c1cc([N+](=O)[O-])ccc1O | -11.5%[5.75 µM]
O=C(COC(=O)c1cnccn1)c1ccc(Br)cc1 | 2.7%
COc1ccc(OC)c(C2C(C(C)=O)=C(O)C(=O)N2c2ccc(F)cc2)c1 (centres undefined) | -2.8%
CCn1nnc(-c2ccccc2NC(=O)c2cc(OC)c(OC)c(OC)c2)n1 | 157.2%
CCOc1ccc2cc(S(=O)(=O)N3CCOCC3)ccc2c1 | 15.9%
CN(Cc1ccco1)c1ncncc1-c1ccoc1 | 16.8%
O=S(=O)(c1cccc(-c2csc(-c3cccnc3)n2)c1)N1CCCCC1 | 65.6%
CCCCCCSc1cc(C)nc2ncnn12 | 43.1%
O=C(Nc1cccc(F)c1)c1ccc(S(=O)(=O)N2CCOCC2)cc1 | 14.4%
CC(C)(C)c1cc(C(=O)NCc2cccnc2)ccn1 | 2.5%
O=C(O)CC[C@]1(C(=O)O)CCC(=O)c2ccccc21 | -2.2%[5.75 µM]
COc1cc2c(cc1OC)-c1nncn1C(C)(C)C2 | 3.4%
COc1ccc(C2/C(=C(/O)c3ccc(Cl)cc3)C(=O)C(=O)N2CCN2CCOCC2)c(OC)c1 (centres undefined) | 0.2%
O=C(CSc1ccc2nnc(-c3ccc(Cl)cc3)n2n1)N1CCN(c2ccccc2)CC1 | 7.8%
Cc1ccc(CNc2ccc3c(c2)OCO3)cc1 | 7.8%
CC(=O)Nc1cc(NC(C)=O)cc(C(=O)NC(C)(C)C)c1 | -4.9%
O=C(C(Cc1ccccc1)n1cccc1)N1CCc2ccccc21 (centres undefined) | -10.1%
CCCC[C@@H]1C[C@H]1C(NC(=O)c1ccco1)c1ccc(-c2ccccc2)cc1 (some centres undefined) | 12.6µM*[single pt active]
Cn1c(=O)cc(SCC(=O)N2CCN(C3CCCCC3)CC2)c2ccccc21 | 83.7%
COC(=O)c1cc(=O)[nH]c(SCc2cccc(C)c2)n1 | -11.3%
CCC/C=C(\CCC)C(NS(C)(=O)=O)c1ccccc1 (centres undefined) | 12.2%
O=C(c1cccs1)c1cn(CC(=O)N2CCc3ccccc3C2)c2ccccc12 | -16.0%
Cc1ccc2nc3c(cc(C(=O)NCCCn4ccnc4)n3C)c(=O)n2c1 | -7.2%
O=C1C2C3C=CC(C3)C2C(=O)N1CCCCN1C(=O)C2C3C=CC(C3)C2C1=O (centres undefined) | 1.4%
COc1ccccc1NC(=O)CSc1nnc(-c2ccncc2)n1CC1CCCO1 (centres undefined) | 15.9%
CCC(=O)Nc1ccc2c(c1)nc1n2CCSC1 | -7.8%
N#CCCn1c(SCC(=O)NCCc2ccc(F)cc2)nc2ccccc21 | 29.9%
CCOC(=O)C(C)Sc1nc2c(c(=O)[nH]c(=O)n2C)n1Cc1ccc(Cl)cc1 (centres undefined) | 74.4%
CNCCc1ccc(O)c(O)c1 | 13.2%
Cc1ccc(NC(=O)CCn2c(=O)oc3ccccc32)c(C)c1 | 3.7%
CC(C)(C)NCC[C@@H](O)c1cc(C(F)(F)F)nc2c(C(F)(F)F)cccc12 | 9.7%[5.75 µM]
N[C@H](C(=O)N[C@@H]1C(=O)N2C(C(=O)O)=C(Cl)CS[C@@H]12)c1ccccc1 | -10.6%[12.8 µM]
CCCCOC(=O)C1=C(N)OC2=C(C(=O)CCC2)[C@]12C(=O)N(C)c1ccccc12 | 106.2%
CCOc1ccccc1C(=O)NCc1ccco1 | 11.4%
N#CCCn1c(=O)c(-c2ccc(F)cc2)nc2cnc(Oc3cccc(Cl)c3)nc21 | -3.1%
N#Cc1c(N)nc(N2CCCC2)c(C#N)c1-c1ccc(Cl)cc1 | -15.9%

Laid out differently: results already given.
canonical_smiles	AmpC nodet inh
CCOC(=O)C(C)Sc1nc2c(c(=O)[nH]c(=O)n2C)n1Cc1ccc(Cl)cc1 (centres undefined)	74.4%
Cn1c(=O)cc(SCC(=O)N2CCN(C3CCCCC3)CC2)c2ccccc21	83.7%

Other records.
SMILES | AmpC nodet inh
CCCCn1nc(C(=O)N2CCc3ccccc32)c2ccccc2c1=O | 48.2%
COc1cc(C(N)=O)ccc1OCc1ccccc1 | -6.4%
N#Cc1c2ncn(CC(=O)c3ccc(Br)cc3)c(=O)c2c2n1CCC2 | 1.0%
Cc1nnc(SCC(=O)N2CCOCC2)s1 | 4.8%
CCC(C)c1ccc2oc(-c3ccc(NC(=O)Cn4cnc5c(=O)n(C)c(=O)n(C)c54)cc3)nc2c1 (centres undefined) | 64.3%
Cc1cc(OCc2nn[nH]n2)c2c3c(c(=O)oc2c1)CCCC3 | -8.4%
Cn1c(=O)n(C)c2cc(S(=O)(=O)NCc3ccccc3)ccc21 | -5.2%
O=C(NCc1nc2ncc(Br)cc2[nH]1)c1ccccc1 | -3.0%
CCOC(=O)c1cn(CC)c2cc(N3CCOCC3)c(F)cc2c1=O | -5.3%
O=C(CCc1nc2ccccc2[nH]1)NCc1ccc2c(c1)OCO2 | -8.3%
O=C(CSc1nnc2sc3ccccc3n12)c1ccco1 | -4.9%
CC(=O)Nc1ccc(S(=O)(=O)NC(CC(=O)O)c2ccc(OC(C)C)cc2)cc1 (centres undefined) | -5.2%
Cc1cccc(NC(=O)C2CCCN(c3nc(C)cc(C)n3)C2)c1 (centres undefined) | 10.1%
Cn1nc(OCC(N)=O)ccc1=O | 4.6%
O=C(Nc1nsc(-c2ccccc2)n1)c1ccncc1 | -4.1%
COc1ccc(S(=O)(=O)NCCC(=O)NC2CCCCCCC2)cc1 | 10.2%
C[C@]12CCC(=O)C=C1CC[C@@H]1[C@@H]2CC[C@]2(C)C(=O)CC[C@@H]12 | 12.7%&29.5%
CN(C)C(=O)Cn1c(=O)n(C)c2ccccc21 | -11.9%
CCOCCCn1c(=S)[nH]c2ncccc2c1=O | 5.6%
O=C(CN1C(=O)c2ccccc2S1(=O)=O)Nc1cccnc1 | 10.5%
COC(=O)C1(CCSC)NC(c2ccco2)C2C(=O)N(C)C(=O)C21 (centres undefined) | -0.7%
COC(=O)c1cc(=O)nc2sc3ccccc3n12 | 1.2%
C1CCc2c(nc3nnnn3c2N2CCOCC2)C1 | 3.4%
O=C(COc1ccc2ccccc2c1)N1CCN(c2ccccc2O)CC1 | 42.2%
NC(=O)C1(N2CCCCC2)CCN(Cc2ccccc2)CC1 | 11.6%
Cc1ccc(CO)cc1 | -0.9%
Cn1c(=O)cc(OCCCC(=O)NCc2ccccn2)c2ccccc21 | 3.1%
CC(c1ccccc1)n1cc(C(=O)NCc2ccncc2)nn1 (centres undefined) | -3.1%
CC(C)(C)N1CC(COc2ccccc2)OC1=O (centres undefined) | -6.1%
NCCC(=O)O | 8.1%
Cc1nonc1-c1nc(-c2nonc2N)n[nH]1 | -14.1%
NC[C@H](CS(=O)(=O)O)c1ccc(Cl)cc1 | 3.3%
CCOc1ccc(C2C(C#N)=C(N)Oc3nc[nH]c(=O)c32)cc1OC (centres undefined) | 0.6%
O=C(CCn1c(=O)oc2ccccc21)NCCCN1CCCC1=O | -6.8%
C[C@]12CC[C@H]3c4ccc(O)cc4CC[C@@H]3[C@H]1CC[C@@H]2OC(=O)CCc1ccccc1 | -12.1%[5.75 µM]
COC(=O)CSC1=C(C#N)C(c2ccc(Cl)cc2)C(C(=O)OC)C(=O)N1 (centres undefined) | 16.7%
Brc1cccc(-c2n[nH]c(-c3ccccc3)n2)c1 | -16.1%
Cn1c(=O)c2c(nc(SCc3cccnc3)n2Cc2ccc(F)cc2)n(C)c1=O | 61.3%
Cc1cccc(C)c1NC(=O)CSc1nnc([C@H](C)NC(=O)OC(C)(C)C)o1 | 17.8%
CCOC(=O)N1CCN(C(=O)CSc2nnc(Cc3ccccc3)o2)CC1 | 35.8%

7 compounds picked at random from those above:
SMILES | AmpC nodet inh
C[C@]12CC[C@H]3c4ccc(O)cc4CC[C@@H]3[C@H]1CC[C@@H]2OC(=O)CCc1ccccc1 | -12.1%[5.75 µM]
C1CCc2c(nc3nnnn3c2N2CCOCC2)C1 | 3.4%
NCCC(=O)O | 8.1%
CC(C)(C)N1CC(COc2ccccc2)OC1=O (centres undefined) | -6.1%
Cc1cccc(C)c1NC(=O)CSc1nnc([C@H](C)NC(=O)OC(C)(C)C)o1 | 17.8%
Cc1nonc1-c1nc(-c2nonc2N)n[nH]1 | -14.1%
CCOC(=O)N1CCN(C(=O)CSc2nnc(Cc3ccccc3)o2)CC1 | 35.8%

Next part:
SMILES | AmpC nodet inh
Cn1c(N)c(S(=O)(=O)c2ccc(Br)cc2)c2nc3ccccc3nc21 | -1.7%
CCCn1c(C)nc2c(NCCCN3CCCCC3C)nc(C)nc21 (centres undefined) | -5.8%
O=C(O)c1cc(=O)cc(C(=O)O)[nH]1 | 7.4%&2.5%
Cc1ccc(S(=O)(=O)N2CCCC(C(=O)N(Cc3cccs3)C3CC3)C2)cc1 (centres undefined) | 36.0%
Cc1ccc2nc(-c3ccc(NC(=O)c4ccc(N)cc4)c(S(=O)(=O)O)c3)sc2c1 | -11.0%[5.75 µM]
c1ccc(Cn2nnnc2C(c2cccs2)N2CCOCC2)cc1 (centres undefined) | 24.6%
CCNc1ncc2nc(-c3cccs3)c(=O)n(-c3ccc(OC)cc3)c2n1 | 5.4%
O=C(c1ccc(C(=O)N2CCCc3ccccc32)nc1)N1CCCc2ccccc21 | 2.8%
O=C(Cn1cnc2c(cnn2-c2ccccc2)c1=O)c1ccc(Cl)cc1 | 2.9%
Cc1ccc2c(CSc3nncs3)cc(=O)oc2c1 | -4.5%
CCOc1ccc(CCNC(=O)Cn2c(-c3nonc3N)nc3ccccc32)cc1OCC | 29.1%
COC(=O)C1C(=O)C=C(N2CCOCC2)CC1(C)C (centres undefined) | -9.9%
O=C(NC(O)C(=O)c1cccs1)c1cccnc1 (centres undefined) | 2.7%
COc1ccc(C(CC(=O)Nc2nccs2)n2cccc2)cc1 (centres undefined) | -1.4%
COc1ccccc1-c1cc(NCc2cnc(C)cn2)ncn1 | 33.7%
CC(=O)c1cccc(S(=O)(=O)N2CCN(c3nc4cc(C)cc(C)c4cc3C#N)CC2)c1 | 11.0%
CCCc1noc2c1C(c1ccoc1)C(C#N)=C(N)N2 (centres undefined) | 3.3%
COc1ccc2c(c1)CCc1c(C(=O)N3CCCc4ccccc43)noc1-2 | 7.8%
Cc1nc(NCC2CCCO2)c2nnn(Cc3ccccc3Cl)c2n1 (centres undefined) | 38.8%
Cc1cc(NC(=O)CSc2nc(C(C)C)nc3sc(C)c(C)c23)no1 | 9.7%
Cn1c(=O)c2c(nc(Br)n2CC(=O)C23CC4CC(CC(C4)C2)C3)n(C)c1=O | 79.0%
Cc1ccc(S(=O)(=O)C2(C(=O)Nc3cccnc3)CC2)cc1 | 3.98µM*[single pt active]
CCCOc1ccc(N2C(=O)CC(N3CCN(c4ccccc4F)CC3)C2=O)cc1 (centres undefined) | 40.4%
N=c1sc2c(n1Cc1ccccc1)CCCC2 | -13.0%
COc1ccc(OC)c(-n2cnnn2)c1 | 52.5%
COc1cccc(-c2nnc(SCC(=O)Nc3ccc4c(c3)OCCO4)n2Cc2ccco2)c1 | 9.1%
COc1ccccc1C(=O)N1CCc2ccccc21 | 15.6%
COCC(=O)Nc1ccc(N(C)C)cc1 | 6.6%
CC1CN(S(=O)(=O)c2ccc(NC(=O)CCCN3C(=O)c4ccccc4C3=O)cc2)CC(C)O1 (centres undefined) | 51.5%
C=C/C(C)=C/[C@]1(C)SC(=O)C(C)=C1O | -7.7%
CC(NS(C)(=O)=O)C(c1cccs1)N1CCN(c2ccc(F)cc2)CC1 (centres undefined) | 38.5%
Cc1occc1-c1nnc(SCC(=O)N2c3ccccc3CCc3ccccc32)n1C | 55.8%
O=C(CN(Cc1ccccc1)C(=O)c1ccco1)NCc1ccc(F)cc1 | 11.8%
O=C1CN=C(c2ccccc2)c2oc3ccc(Br)cc3c2N1 | 5.8%
Nc1ccnc(C(F)(F)F)c1C(=O)c1ccccc1 | -0.2%
Cc1cc(NC2C3CC4CC(C3)CC2C4)n2nnnc2n1 (centres undefined) | -14.1%
CCNc1ncc2nc(-c3ccccc3)c(=O)n(-c3ccc(OC)cc3)c2n1 | 14.5%
COC(=O)c1sc(N)c(C(=O)OC)c1CSc1nnc(-c2ccccc2Cl)n1C | 29.6%
CN1CCN(CC(=O)Nc2ccc(Cl)cc2Cl)CC1 | 10.3%
Cc1cc(N2CCOCC2)n2nc(-c3cccc(F)c3)cc2n1 | 22.3%
COc1ccc(-c2nc(N3CCOCC3)nc3nn4c(C)c(CCC(=O)O)c(C)nc4c23)cc1 | 90.3%
O=C(CCC1COc2ccccc2O1)Nc1ncccc1O (centres undefined) | 4.5%
O=C(Cn1nc(Cc2cccnc2)c2ccccc2c1=O)NCc1ccc2c(c1)OCO2 | 13.5%
COc1ccc(C2(CNC(C)=O)CCCC2)cc1OC | 13.9%
COc1ccc(O)c(C(=O)c2cc(C#N)c(=O)n(CCN3CCOCC3)c2)c1 | 6.5%
CC1(C)CC(=O)C=C(Nc2ccc(Br)cn2)C1 | -10.0%
C[C@]12N[C@@H](Cc3ccccc31)c1ccccc12 | 7.4%
CCC(C)COC(=O)c1ccc(C(=O)O)cc1 (centres undefined) | -4.3%
CC1=C(C(=O)Nc2cccnc2)C(c2cccnc2)n2nc(-c3cccs3)nc2N1 (centres undefined) | 14.2%
Cc1ccc(C2CC(c3ccccc3C)n3nc(N)nc3N2)cc1 (centres undefined) | 3.98µM*[single pt active]
COc1ccc2c(c1)c(=O)c(Br)c(C)n2Cc1ccccc1 | 48.5%
